Bioassay records deposited in PubChem by several laboratories.
Mtb H37Rv: M. tuberculosis H37Rv growth inhibitors, H37Rv strain (AID 1626) | M. tuberculosis H37Rv growth inhibition; higher % means a stronger effect | one-dose inhibition, % at 10 µM; IC50 in µM for titrated hits | 220,000 compounds, 0.95% hits;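 active means confirmed in a dose series; inconclusive means inhibition above 80% but not taken into the dose series; inactive means below 80% or under 30% at every dose of the series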;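 further: bacteria incubated seven days before Alamar blue readout; 0% = bacteria only wells and 100% = bacteria with antibiotic wells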
YopH inh: YopH (Yersinia) phosphatase inhibition | fluorescence Ex485/Em525 | AID 898 | 140,000 compounds, 0.16% hits | inhibition, %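 (about 10 µM by stock and volumes)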;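 active means inhibition of 50% or more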;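 further: controls were vehicle for no effect and minimum signal wells for full effect; inactives centre near -20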
Arbovirus inh: blocks arbovirus infection | 200,000 compounds, 0.37% hits | AID 1251 | arbovirus infection cell-based antiviral screen | inhibition, % at 10 µM;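 active means inhibition from about 30%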;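 further: bluetongue infection of BSR cells; cell survival read as ATP light after 72 h; 0% = infected wells without compound and 100% = uninfected wells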
RecA intein inh: inhibitors of M. tuberculosis RecA intein splicing; 290,000 compounds, 0.75% hits; inhibition, %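 (about 9 µM by stock and volumes)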; cell-free RecA intein splicing, fluorescence; in the data active means inhibition above about 30%; inconclusive means no clear call, values can overlap the other calls;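 further: 0% = vehicle wells and 100% = reference inhibitor control wells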
Target sequence (P9WHJ3 whole entry, looked up): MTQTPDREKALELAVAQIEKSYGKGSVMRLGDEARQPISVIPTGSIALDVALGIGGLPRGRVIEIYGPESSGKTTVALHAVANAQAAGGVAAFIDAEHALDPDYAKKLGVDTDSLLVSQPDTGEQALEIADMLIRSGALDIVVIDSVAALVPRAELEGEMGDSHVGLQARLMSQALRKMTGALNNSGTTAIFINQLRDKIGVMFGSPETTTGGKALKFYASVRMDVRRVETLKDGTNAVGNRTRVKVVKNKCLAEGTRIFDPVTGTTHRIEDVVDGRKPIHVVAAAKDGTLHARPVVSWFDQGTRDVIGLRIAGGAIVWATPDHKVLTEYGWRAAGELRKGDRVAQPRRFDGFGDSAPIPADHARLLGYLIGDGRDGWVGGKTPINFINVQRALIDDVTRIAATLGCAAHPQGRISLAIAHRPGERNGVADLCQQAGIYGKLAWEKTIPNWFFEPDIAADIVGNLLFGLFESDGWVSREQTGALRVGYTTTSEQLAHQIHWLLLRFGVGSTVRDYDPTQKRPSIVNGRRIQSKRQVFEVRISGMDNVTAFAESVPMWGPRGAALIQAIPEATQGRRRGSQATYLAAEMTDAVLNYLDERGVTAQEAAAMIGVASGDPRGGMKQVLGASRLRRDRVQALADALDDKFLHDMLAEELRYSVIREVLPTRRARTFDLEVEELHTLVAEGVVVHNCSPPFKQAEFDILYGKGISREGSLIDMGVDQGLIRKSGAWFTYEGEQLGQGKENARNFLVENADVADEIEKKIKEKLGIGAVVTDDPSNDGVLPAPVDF
Mtb bLac sens: beta-lactam sensitization of Mtb H37Rv; M. tuberculosis H37Rv growth with meropenem, percent inhibition; hits of this screen are not shown here; 330,000 compounds, 0.27% hits; inhibition, % at 25 µM;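 active means about 74% or more and at least 40 points above the plate without the antibiotic, then above 30% in a dose series; inconclusive means first-round hits that could not be retested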;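 further: growth measured after seven days incubation then overnight dye step; 0% = bacteria only wells and 100% = bacteria with antibiotic; twin plates without the antibiotic show which effects depend on it; some results filed as inactive read as strong as hits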
Arbovirus inh repeat: recorded beside Arbovirus inh, whose call it bears; inhibition, %; measured here: 10K subset replicate screen; many hits read low in the repeat;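 first of two repeat runs on a subset; 0% = infected and 100% = uninfected wells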
Numbers without * were called inactive; ? = inconclusive; nt = not tested or not shown; & = joins results of further samples.

The first six records (preview)
SMILES	Mtb H37Rv	YopH inh	Arbovirus inh	RecA intein inh	Mtb bLac sens	others
COc1ccc(S(=O)(=O)N2CCC(C(=O)N[C@@H](C)C(=O)NC3CCCC3)CC2)cc1	nt	nt	nt	4.7	-5.1
CN1C(=O)/C(=C/c2ccc(O)c([N+](=O)[O-])c2)NC1=S	-4.9%	nt	0.1	5.3	-1.2
c1ccc(CCCNc2ncnc3nc[nH]c23)cc1	10.3%	-22.4	-29.8	-2.8	-3.5
Cc1ccc(S(=O)c2snnc2C)cc1 (centres undefined)	nt	nt	nt	2.1	-6.0
Cc1cccc(OCc2nnc(SCC(=O)NCCc3ccccc3)o2)c1	?	-9.4	6.8	-2.2	80.7	Arbovirus inh repeat=-2.5
O=C(Oc1ccc(N2C(=O)CCC2=O)cc1)c1ccccc1Cl	3.0%	-44.6	3.0	0.0	4.4

The listing, from the start:
SMILES	Mtb H37Rv	YopH inh	Arbovirus inh	RecA intein inh	Mtb bLac sens	others
COc1ccc(S(=O)(=O)N2CCC(C(=O)N[C@@H](C)C(=O)NC3CCCC3)CC2)cc1	nt	nt	nt	4.7	-5.1
CN1C(=O)/C(=C/c2ccc(O)c([N+](=O)[O-])c2)NC1=S	-4.9%	nt	0.1	5.3	-1.2
c1ccc(CCCNc2ncnc3nc[nH]c23)cc1	10.3%	-22.4	-29.8	-2.8	-3.5
Cc1ccc(S(=O)c2snnc2C)cc1 (centres undefined)	nt	nt	nt	2.1	-6.0
Cc1cccc(OCc2nnc(SCC(=O)NCCc3ccccc3)o2)c1	?	-9.4	6.8	-2.2	80.7	Arbovirus inh repeat=-2.5
O=C(Oc1ccc(N2C(=O)CCC2=O)cc1)c1ccccc1Cl	3.0%	-44.6	3.0	0.0	4.4
S=C(NCc1ccccc1)N1CCN(C2CCCCC2)CC1	12.2%	nt	nt	-0.1	-2.5
O=C(Nc1cc(Cl)ccc1Cl)C1CC(=O)N(c2ccccc2)C1 (centres undefined)	4.8%	nt	-3.4	1.0	-8.3
COCCCNC(=O)/C(=C\c1cccn1C)NC(=O)c1cccs1	6.3%	-3.9	6.0	-1.7	5.6
CCCn1c(SCC(=O)NC)nc2sc3c(c2c1=O)CCC3	nt	nt	nt	0.0	1.5
O=C(c1ccc(Cl)c(F)c1F)N1CCOCC1	-5.4%	-8.4	-4.0	1.2	-7.9
C[C@]12CCC3C(CCC4=C/C(=N/OCC(=O)NC(CCC(=O)O)C(=O)O)CC[C@@]43C)C1CCC2O (some centres undefined)	nt	nt	nt	-1.0	-8.9
C[C@@H](CN1C2=NC[C@H](Cc3ccccc3)N2C[C@H]1Cc1ccc(O)cc1)NC(=O)CCC1CCCCC1	7.7%	nt	-21.0	1.9	76.5
Cc1ccc(N/C=C2\CCCCC2=O)nc1	-20.4%	nt	5.5	2.2	-1.5
Nc1c(C(=O)O)nnn1Cc1ccccc1	-5.4%	-20.1	-3.8	-0.4	-8.6
C/C(=N\NC(=S)NCCc1ccccc1)c1cccc(Br)c1	0.5%	nt	-6.8	nt	-3.1
O=C(CO/N=C/c1ccccc1O)N1CCc2ccccc21	13.8%	-2.1	-6.0	3.4	12.6
c1ccc(C2=NC(c3ccccc3)N=C(c3ccccc3)N2)cc1	-1.2%	-11.1	-5.0	nt	-0.6
CCOC(=O)c1c(/N=C/N(C)C)sc2c1CCC2	7.9%	-13.0	-7.4	-1.9	-3.9
N#CC1(C#N)CC(C=O)=C(N)C1(C#N)CC(=O)c1ccc(F)cc1 (centres undefined)	-8.5%	-4.3	-2.0	-1.1	-16.3
Cc1ccc(OCC(=O)Nc2ccc(F)cc2)cc1	7.0%	2.4	4.4	0.4	11.3
O=[N+]([O-])c1ccccc1CNCCc1c[nH]c2ccccc12	nt	nt	nt	0.9	-9.1
CCOC(=O)c1nccnc1C(=O)Nc1ccc(C(F)(F)F)cc1	1.9%	nt	2.7	-0.9	-3.3
COc1ccc(/C(N)=N/OC(=O)Oc2ccccc2)cc1	4.9%	-15.1	6.7	nt	0.8
CCN(CC)C(=O)C1CCN(S(=O)(=O)c2ccc3c(c2)CCCN3C(=O)C2CCC2)CC1	nt	nt	nt	0.7	-1.3
CCOc1ccccc1Nc1nc(N)nc(CSc2nncn2C)n1	-1.3%	-23.7	2.0	-1.4	-7.7
Cc1ccc(CN2CCN(C(=O)C3CCC3)CC2)cc1	0.8%	45.2	-3.2	-1.0	-13.5
COc1ccc(C(C)NC(=O)c2ccncc2)cc1OC (centres undefined)	nt	nt	nt	1.0	0.3
COc1ccc(Cc2nnc(SCC(=O)NC3(C#N)CCCCC3)n2N)cc1	nt	nt	nt	-1.0	-3.5
O=C1CC(SCc2nc3ccccc3[nH]2)C(=O)N1c1ccc(Cl)cc1 (centres undefined)	6.2%	-12.9	-4.7	0.4	-3.5
COc1ccc(C2=NOC(C(=O)Nc3cc(C)nn3-c3ccccc3)C2)cc1OC (centres undefined)	4.8%	-37.6	-1.5	0.8	4.3	Arbovirus inh repeat=7.4
CC(=O)c1cc2c(cc1NS(=O)(=O)c1ccc(F)cc1)OCO2	-3.5%	nt	2.5	3.8	-0.5
COc1ccc(-c2ocnc2C(=O)N2CCN(C(=O)C(c3ccccc3)c3ccccc3)CC2)cc1	nt	nt	nt	0.8	-10.5
S=c1[nH]nc(-c2ccccc2)n1/N=C/c1ccc(-c2ccccc2Cl)o1	11.0%	-38.0	-12.1	5.9	5.3
Cc1sc2ncn(CC(=O)OC(C)C)c(=O)c2c1C	-1.4%	-29.0	-0.1	nt	nt
N#Cc1ccc(CSc2nnc(Cc3cccs3)n2Cc2ccco2)cc1	-1.2%	-7.9	3.6	3.9	1.3
COc1cc(OC)cc(C(=O)NC(=S)Nc2ccc3c4c(cccc24)CC3)c1	-16.6%	-35.1	-15.1	7.8	8.4
CC(C)(C)c1ccc(-n2ncc3c2CCCC3NC(=O)c2cnccn2)cc1 (centres undefined)	nt	nt	nt	-4.8	87.8
COc1ccc2oc(/C=C/N(C)C)c(C(=O)c3ccc(Cl)cc3)c2c1	3.7%	-17.9	8.6	5.8	7.4
CCCN1CCCc2ccccc21	-1.2%	-15.7	15.1	-1.5	5.3
CN(C)/C=C1\C(=O)ON=C1c1ccccc1	nt	nt	1.1	-1.9	-2.9
CCCc1cc(=O)oc2cc(OCC(=O)OC)cc(OCC(=O)OC)c12	6.8%	-51.3	-0.3	1.9	nt
CCc1ccc(NC(=O)C2CCCN(S(=O)(=O)c3c(C)[nH]c(=O)[nH]c3=O)C2)cc1 (centres undefined)	-3.3%	nt	2.9	-3.9	1.9
CCOC(=O)c1sc(C)c2c(=O)n(Cc3ccc(Cl)cc3)c(C)nc12	-4.6%	7.1	3.0	2.3	-6.1
O=C(CSc1nnnn1-c1ccc(F)cc1)Nc1ccccc1F	nt	nt	nt	1.2	1.1
COc1ccc2occ(C(C)=O)c2c1	-3.6%	-8.0	-2.0	-4.6	3.1
CC(C)C(NC(=O)c1ccccc1F)C(=O)Nc1nccs1 (centres undefined)	0.7%	nt	1.6	2.1	-3.8
COc1ccccc1-c1nnc2sc(-c3ccc(N(C)C)cc3)nn12	8.4%	-23.7	-18.1	-8.2	3.1
C/C=C/c1ccc(OCCCCN2C(=O)NC(C)(C)C2=O)c(OC)c1	-14.5%	33.4	6.2	-0.5	-6.9
Cc1ccc(NC(=O)CSc2nn(-c3ccccc3)c(=S)s2)cc1S(=O)(=O)N(C)C	3.6%	-20.8	2.1	3.2	0.3
O=C(COc1ccccc1F)Nc1ccc2[nH]c(=O)[nH]c2c1	nt	nt	nt	-1.1	3.0
CCOc1ccc(S(=O)(=O)N2c3ccccc3CC2C)cc1 (centres undefined)	-2.3%	-8.9	-4.9	9.1	-1.1
CCc1nc2ccc(Br)cc2c(=O)n1-c1ccccc1C(F)(F)F	3.7%	10.9	nt	-5.9	-3.9
NC(=O)c1nn(-c2ccc(Oc3ccccc3)cc2)c(=O)cc1O	7.6%	nt	-2.3	-5.5	12.2
COCC(C)n1c(C)cc(C(=O)COC(=O)c2nc3nc(C)cc(C)n3n2)c1C (centres undefined)	-5.3%	-6.0	1.9	-0.2	-4.7
O=C(NCCS(=O)(=O)c1ccc(Br)cc1)c1ccccc1	nt	nt	nt	-2.2	-9.4
CC(=O)N(CCO)Cc1cc2cc(C)cc(C)c2[nH]c1=O	-9.5%	-26.7	-2.1	2.1	5.2
N#CCCn1nc(-c2ccccc2)c2ccccc2c1=O	nt	nt	nt	2.0	14.5
Cc1ccc(C(=O)COc2ccccc2-c2ccccc2)cc1C	-4.7%	-31.7	-1.5	-3.2	2.6
C#CCNC(=O)C1=C[C@H](C2CC2)C[C@H](OCCCCO)O1	3.2%	nt	2.3	1.9	-13.9

Next section:
SMILES	Mtb H37Rv	YopH inh	Arbovirus inh	RecA intein inh	Mtb bLac sens	others
CCc1nccn1S(=O)(=O)c1cc(OC)c(Cl)cc1OC	5.8%	-1.1	7.4	1.4	5.9
Nc1nc(Cl)nc2c1ncn2[C@H]1C[C@H](O)[C@@H](CO)O1	9.8%&8.8%	-6.6	-27.2&-14.4	-3.2	33.8
COc1cc(NS(=O)(=O)c2ccc(NC(=O)c3cccs3)cc2)nc(OC)n1	nt	nt	nt	4.6	6.1
CCc1ccc(NC(=O)CCn2nc(C)c(S(=O)(=O)N3CCCCC3)c2C)cc1	nt	nt	nt	1.2	-0.2
CCCNc1sc(S(=O)(=O)CCC)nc1S(=O)(=O)c1ccc(C)cc1	-4.5%	nt	1.6	-0.3	3.8
COC(=O)NC(NC(=S)Nc1ccc([N+](=O)[O-])cc1)C(Cl)(Cl)Cl (centres undefined)	-0.6%	-5.9	-21.1	12.6	-5.7
CN1CCCN(C(=O)COc2ccc(F)cc2F)CC1	nt	nt	nt	-2.9	-8.0
CC(Nc1ccc(F)cc1F)C(=O)NC(=O)NC1CCCCC1 (centres undefined)	5.0%	nt	7.9	0.9	-1.7
COCCNC(=O)C(OC(=O)CC1Sc2ccccc2NC1=O)c1ccncc1 (centres undefined)	-2.4%	-19.4	9.1	-2.8	-1.1
CCn1cc(C(=O)NCCCOC)c2cc(OC)c(OC)cc2c1=O	-13.9%	-3.2	4.8	0.6	-1.0	Arbovirus inh repeat=-0.1
Cc1ccc(S(=O)(=O)N(CC(=O)NCCSc2ccccn2)c2cc(C)cc(C)c2)cc1	4.3%	-54.3	-29.9	3.5	-2.2
CN(CCNC(=O)C1CC(=O)N(c2ccc(F)c(Cl)c2)C1)Cc1ccccc1 (centres undefined)	-10.9%	-21.2	-2.1	-1.2	3.6
O=C(O)CC12CC3CC(C1)CC(n1ncc(NCc4ccccc4Cl)c(Cl)c1=O)(C3)C2	7.1%	nt	nt	0.5	8.5
O=C(CN1C(=O)c2ccccc2S1(=O)=O)NC(Nc1ccccc1F)C(Cl)(Cl)Cl (centres undefined)	2.0%	nt	0.3	5.0	-8.5
COc1ccc(C2=NOC(C(=O)Nc3cccnc3)C2)cc1OC (centres undefined)	2.4%	nt	nt	-3.6	6.5
Cc1cc(-n2cnnn2)ccc1C(C)C	5.4%	nt	1.8	0.9	-1.1
O=C(N/N=C/C1CC2C=CC1C2)c1ccccc1O (centres undefined)	-8.1%	nt	nt	-0.4	48.7
COc1ccc(OC)c2c1CCC1NCCOC21 (centres undefined)	-6.2%	-20.0	8.0	1.6	2.0
Cc1cccc(NC(=O)CSc2ncnc3sc(C)cc23)c1	nt	nt	nt	-3.1	-3.0
CCCn1c(N)c(C(=O)COC(=O)c2c(C)noc2C)c(=O)n(C)c1=O	1.4%	-15.7	5.0	-0.1	-2.2
COC(=O)C1=C(C)OC(N)=C(C#N)C1c1ccccc1 (centres undefined)	-5.3%	-28.5	4.2	4.2	-0.5
c1ccc(Oc2cc(-n3cccn3)ncn2)cc1	2.7%	-11.4	4.2	0.7	-1.9
CCOC(=O)C1=C(C)N=c2s/c(=C\c3ccc(OC(C)=O)c(OCC)c3)c(=O)n2C1/C=C/c1ccccc1 (centres undefined)	-6.8%	-41.9	4.4	-5.3	-0.7
CC(C)c1ccc(NC(=O)C(c2ccccc2)N2CCN(C(=O)c3ccco3)CC2)cc1 (centres undefined)	10.6%	-36.7	-16.6	14.3	34.7
CCOc1ccc(NC(=O)N(CCN(C)C)C(C)c2cccnc2)cc1 (centres undefined)	61.4%	nt	nt	-3.5	-6.9
CC(=O)c1cccc(NS(=O)(=O)c2c(C(=O)N3CCOCC3)c(C)n(C)c2C)c1	nt	nt	nt	-0.5	-1.1
O=C(O)CNC(=O)/C=C/c1ccc(Cl)cc1Cl	-6.0%	nt	2.6	1.3	1.2
O=C(NCCc1ccc(Cl)cc1)C1CCN(S(=O)(=O)c2ccc(-n3cnnn3)cc2)CC1	-2.4%	-51.8	-3.3	3.3	3.6
O=C(c1ccco1)N1CCN(C(=S)Nc2ccccc2Cl)CC1	nt	nt	nt	-0.6	-1.4

The list is partial (hit frequency here may not be typical).
